# TRPV1 potentiator: HTS Assay for Compounds that Act as Potentiators of the Vanilloid Receptor 1 | Transient receptor potential cation channel subfamily V member 1 (Homo sapiens), Q8NER1 | TRPV1-expressing cells, Fluo-8 calcium influx, capsaicin EC20 potentiation; host cell line not named in the record; control for the full effect not named in the record | potentiation, % at 8.33 µM | 0.02% of 320,000 active; active means potentiation above 80%; inconclusive means 30% to 80%; inactive means below 30%; further: 0% is about no effect
# Target sequence (Q8NER1 whole entry, looked up): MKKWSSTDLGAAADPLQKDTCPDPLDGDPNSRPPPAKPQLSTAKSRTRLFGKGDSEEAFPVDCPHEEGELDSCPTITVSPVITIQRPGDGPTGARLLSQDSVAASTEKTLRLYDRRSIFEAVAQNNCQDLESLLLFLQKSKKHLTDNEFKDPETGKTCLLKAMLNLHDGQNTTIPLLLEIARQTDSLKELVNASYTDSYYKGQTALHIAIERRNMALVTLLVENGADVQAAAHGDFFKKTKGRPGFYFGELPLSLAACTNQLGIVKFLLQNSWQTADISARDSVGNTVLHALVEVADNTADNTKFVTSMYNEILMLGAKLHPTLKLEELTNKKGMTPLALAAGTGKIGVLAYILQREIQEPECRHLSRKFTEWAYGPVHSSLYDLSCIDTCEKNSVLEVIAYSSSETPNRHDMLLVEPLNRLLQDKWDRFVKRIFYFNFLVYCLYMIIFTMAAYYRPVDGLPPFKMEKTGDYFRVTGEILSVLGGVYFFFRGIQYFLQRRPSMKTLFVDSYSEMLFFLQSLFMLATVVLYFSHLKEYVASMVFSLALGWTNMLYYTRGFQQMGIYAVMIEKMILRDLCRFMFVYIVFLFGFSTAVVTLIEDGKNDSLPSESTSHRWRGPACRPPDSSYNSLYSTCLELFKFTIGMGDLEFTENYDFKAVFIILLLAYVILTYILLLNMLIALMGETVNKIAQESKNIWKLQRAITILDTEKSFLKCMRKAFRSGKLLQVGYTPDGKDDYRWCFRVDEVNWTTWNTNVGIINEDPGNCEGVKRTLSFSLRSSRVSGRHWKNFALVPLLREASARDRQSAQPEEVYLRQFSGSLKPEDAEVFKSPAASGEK
#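 TRPV1-expressing cells were cultured overnight at 35.5C and loaded with Fluo-8 calcium dye for 40 to 90 min at room temperature. After a 10 s baseline, compound was added and calcium influx was read kinetically for 3 min (ex 480/em 520 nm).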
# gsp antagonist: qHTS for Antagonists of gsp, the Etiologic Mutation Responsible for Fibrous Dysplasia/McCune-Albright Syndrome: qHTS; Potency, µM (top dose mostly 76.9 µM), without a hit: at the top dose activity change, negative = inhibition, usual class: inhibitors; 0.4% of 340,000 active; gsp-mutant cells, cAMP HTRF, 30 min; control for the full effect not named in the record; active = falling curve of any shape with a large fitted effect; inconclusive = falling curve, mostly with a smaller effect; inactive = flat or rising curve; cell line not stated here;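 further: intracellular cAMP measured with PDE inhibitor Ro 20-1724 present during compound exposure; potency means the concentration at half of the fitted maximal effect; on the % scale 0 is the no-effect control and ±100 the full control effect; nearly all actives have a fitted effect of over 65% in size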
#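 Measurement of cellular cAMP by homogeneous time-resolved fluorescence following a 30 min compound exposure at 37C. The PDE inhibitor […] was present throughout; the assay buffer was DPBS with 0.05% BSA and 0.005% Tween 20.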
# Menin-MLL FL inh: qHTS Assay for Inhibitors Targeting the Menin-MLL Interaction in MLL Related Leukemias: Competition With Fluorescein Labeled MLL-derived Peptide. AID 1766, 2009. FP activity change, % at 61.4 µM. Fluorescence polarization, fluorescein-MLL peptide displacement from menin. 290,000 tested, under 10 active; inconclusive = falling polarisation curve, or a change in total fluorescence; inactive = total fluorescence flat and polarisation flat or rising; no compound was filed as active; the % refers to the polarisation; negative = inhibition;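 further: % of control where 0% means no effect; inhibitors lower the polarisation; unlabelled MLL peptide was the positive control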
# gsp ag: qHTS for Agonist of gsp, the Etiologic Mutation Responsible for Fibrous Dysplasia/McCune-Albright Syndrome: qHTS; Potency, µM (titrated, usually from 76.9 µM), without a hit: at the top dose activation (cAMP increase), actives largely listed as activators; gsp mutant cells, cAMP HTRF, 30 min; control for the full effect not named in the record; 0.13% of 340,000 active; active = well fitted activation curve with a large enough effect; inconclusive = small, poorly fitted or top-dose-only effect, or another doubt; inactive = no such curve, though single readings can be large or run the other way; cell line not stated here;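 further: phosphodiesterase inhibitor Ro 20-1724 added with compounds to block cAMP breakdown; potency means the concentration at half of the fitted maximal effect; nearly all actives have a fitted effect of over 60% in size; about a fifth of the inactives were tested at one dose only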
#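 Cells stably selected in G418 were plated at 2000/well, grown 16-24 hr, then given compounds in DMSO with the PDE inhibitor […] (300 uM solution added) for 30 min at 37C; cAMP was read by HTRF.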
# TRPML1 inh: qHTS for Inhibitors of the Human Mucolipin Transient Receptor Potential 1 (TRPML1) | Mucolipin-1 (Homo sapiens), Q9GZU1 | TRPML1-inducible cells, Ca2+ dye fluorescence, FDSS; active compounds read low; inhibition of EC80 agonist-evoked calcium signal | activity change, negative = inhibition, % (no concentration beside the values) | 0.02% of 390,000 active | AID 624415, 2012; in the data active means activity change below about -50%; inconclusive means about -30% to -50%; inactive means above about -30%;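 further: stimulus is agonist 54-4 at its EC80 concentration; on the % scale 0 is the no-effect control and ±100 the full control effect; compound concentration not given in the record; the text of the record puts the active cut at -80%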
#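 Tet-induced TRPML1-DL cells loaded with Ca8 no-wash calcium dye were read kinetically on FDSS. Compound addition was followed by EC80 agonist 54-4 (4 uM final); inhibition was read over 110 s.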
# Sfp PPTase inh: qHTS Assay for Inhibitors of Bacillus subtilis Sfp phosphopantetheinyl transferase (PPTase); 4'-phosphopantetheinyl transferase ffp (Bacillus subtilis), Q9F4F7; Biochemical Sfp PPTase activity, qHTS; Potency, µM, for inactives: max response, negative = inhibition, hits mostly inhibitors; 3.5% of 310,000 active; AID 1490, 2009; active means well fitted inhibition curve with a large enough effect; inconclusive means small, poorly fitted or top-dose-only effect, or another doubt; inactive means no such curve, though single readings can be large or run the other way;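 further: the enzyme is Sfp with the accession as filed and its product quenches rhodamine fluorescence; potency means the concentration at half of the fitted maximal effect; 0% = enzyme reaction without inhibitor and -100% = no enzyme wells; top concentration of the series not given in the record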
#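 Fluorescence-quenching assay with 15 nM Sfp, 5 uM rhodamine-CoA and 12.5 uM BHQ-2-labelled ybbR peptide in pH 7.6 Hepes/MgCl2 buffer. Enzyme was pre-incubated with compound for 15 min at room temperature. Rate was taken from the 30-min fluorescence change (525/598 nm).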
# ClpP mod: qHTS Assay for Activators of ClpP | purified B. subtilis ClpP, FRET peptide cleavage, 20 min | Potency, µM (doses to about 57.5 µM), for the others: at the top dose activity change, negative = active | 1.9% of 340,000 active | AID 651965, 2013; active = well fitted falling curve with a large enough effect; inconclusive = small, poorly fitted or top-dose-only effect; inactive = no such curve, though single readings can be large or run the other way; further: potency means the concentration at half of the fitted maximal effect; the source files actives as falling curves though it sought activators and does not explain the sign; nearly all actives have a fitted effect of over 65% in size; many hits overshoot -100%
# Target sequence (P80244 whole entry, looked up): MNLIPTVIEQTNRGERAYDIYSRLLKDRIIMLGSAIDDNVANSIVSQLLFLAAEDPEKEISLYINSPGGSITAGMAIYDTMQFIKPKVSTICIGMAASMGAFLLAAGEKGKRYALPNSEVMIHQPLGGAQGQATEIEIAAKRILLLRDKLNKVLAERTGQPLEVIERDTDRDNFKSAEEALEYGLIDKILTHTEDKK
#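 FRET quenching reversal measured ClpP activation: 10 microg/mL B. subtilis ClpP at pH 8 with the FRET-FV decapeptide, read at 430 nm after 320 nm excitation. The 20-min minus 0-min signal was scaled between DMSO/no-enzyme wells and ADEP (5.8 microM final).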
# * hit, by the source's call; ? = inconclusive; · = not tested or not shown; & = joins results of further samples; [ ] = another dose, or the depositor's remark.
SMILES,TRPV1 potentiator,gsp antagonist,Menin-MLL FL inh,gsp ag,TRPML1 inh,Sfp PPTase inh,ClpP mod
Cc1ccc(N=Cc2nc(/C=C/c3cccc([N+](=O)[O-])c3)oc2O)cc1,3.2,17.8%,?,1.7%,-7.8,-9.2%,-0.3%
O=C(O)c1ccc(CSc2n[nH]c(-c3ccco3)n2)cc1,-5.1,-0.5%,4.9,3.9%,-3.1,-22.8%,-11.5%
COc1ccc(CNC(=O)C2CCN(S(=O)(=O)c3ccc4nc5c(c(C(=O)O)c4c3)CC(C)CC5)CC2)cc1 (configuration not stated),16.4,1.4%,·,38.7%,9.2&-10.9,18.1%,-0.6%&-2.2%
Clc1ccc(CSc2nnc(-c3ccncc3)o2)c(Cl)c1,2.2,-4.7%,-1.3,-20.5%,14.3,-15.4%,-5.1%
COc1ccc(-c2cc(C(F)(F)F)n3nc(C(=O)N4CCCC4)cc3n2)cc1,-17.8,6.4%,-6.2,17.3%,18.8,7.2%,-6.1%
CCc1ccc(-c2nn(-c3ccccc3C)cc2C(=O)N2CCN(C3CCS(=O)(=O)C3)CC2)cc1 (configuration not stated),-2.7,8.3%,·,?,2.6,·,-0.6%
CCc1nc2oc3ccccc3c(=O)c2c(=O)n1-c1ccc(C)cc1,0.0,-14.5%,19.7,0.7%,48.2,17.3%,·
O=C(Oc1c(-c2ccccc2)c(=O)n2c3c(cccc13)CC2)c1cccc([N+](=O)[O-])c1,-20.9,3.9%,2.9,-0.1%,-4.7,-26.9%,·
Cc1csc(NC(=O)C2CCN(S(=O)(=O)c3ccc4c(c3)oc(=O)n4C)CC2)n1,-24.5,-3.3%,2.3,8.5%,-26.8,0.0%,1.5%
Cc1cnc2ncc3sccc3c2c1,-1.2,-2.5%,1.5,?,-1.3,-4.5%,·
O=C1[C@@H]2[C@@H]3C[C@@H]([C@H]4ON=C(c5ccc(Cl)cc5)[C@@H]34)[C@@H]2C(=O)N1C1CCCCC1,-3.9,-12.0%,-1.2,15.4%,-0.5,-1.7%,-2.2%
COc1cccc(Nc2ncnc3ccccc23)c1,-22.7,6.4%,-0.1,21.0%,6.4,13.1%,-17.1%
O=C(c1cc(-c2ccc3c(c2)OCO3)on1)N1CCN(c2ccccc2)CC1,-4.3,-28.8%,2.5,-3.3%,12.6,3.1%,-4.4%
CS(=O)(=O)N1CCC(C(=O)Nc2cc(Cl)ccc2Cl)CC1,1.2,7.8%,2.7,-11.9%,-1.0,4.3%,·
O=C(NNS(=O)(=O)c1ccc(Cl)cc1)c1cc(-c2ccccc2)nc2ccccc12,23.0,-22.3%,2.1,25.9%[15.4 µM],-7.3,-7.1%,-4.1%
COc1ccc(C2C(C#N)=C(N)Oc3n[nH]c(C)c32)cc1Cn1nc(C)c([N+](=O)[O-])c1C (configuration not stated),21.1,7.6%,-1.2,1.1%,11.5,-10.2%,-5.8%
CN(C(=O)c1cccc(NC(=O)Cc2ccc([N+](=O)[O-])cc2)c1)C1CCC1,·,-6.4%,·,·,-3.0,·,-0.9%
CC(=O)c1ccc(OCC(=O)N2CCCC2c2ccc3c(c2)OCCCO3)cc1 (configuration not stated),·,1.1%,·,?,-2.5,·,·
Nc1cccc(-n2cccc2)c1,-4.7,0.2%,7.4,?,-6.4,12.9%,-4.1%
CCOC(=O)C1CCN(C(=O)CNC(=O)Cn2c(C)cc3ccccc3c2=O)CC1,18.7,13.0%,5.8,3.5%,2.2,16.9%,·

# Reformatted as tab-separated lines: two of the compounds above
compound	TRPV1 potentiator	gsp antagonist	Menin-MLL FL inh	gsp ag	TRPML1 inh	Sfp PPTase inh	ClpP mod
Cc1csc(NC(=O)C2CCN(S(=O)(=O)c3ccc4c(c3)oc(=O)n4C)CC2)n1	-24.5	-3.3%	2.3	8.5%	-26.8	0.0%	1.5%
O=C(Oc1c(-c2ccccc2)c(=O)n2c3c(cccc13)CC2)c1cccc([N+](=O)[O-])c1	-20.9	3.9%	2.9	-0.1%	-4.7	-26.9%	·

# New compounds follow:
SMILES,TRPV1 potentiator,gsp antagonist,Menin-MLL FL inh,gsp ag,TRPML1 inh,Sfp PPTase inh,ClpP mod
CCC1CCCCN1C(=O)c1nn2cccnc2c1Cl (configuration not stated),-2.7,0.3%,-0.3,15.5%,12.7,13.7%,-7.1%
CCC1(O)CC(c2ccccc2)=NN1C(=O)c1ccccc1F (configuration not stated),·,0.1%,·,14.0%[15.4 µM],32.8,·,?
Cc1cc(=O)[nH]c2c1c(C)nn2C1CCOC(C)(C)C1 (configuration not stated),4.8,2.0%,4.4,-31.6%[inhibitor],-4.3,5.4%,-4.4%
Cc1ccc(C2=NN(C(=O)CCCC(=O)O)C(c3ccc4c(c3)OCO4)C2)cc1 (configuration not stated),-5.1,?,3.6,-9.6%,1.2,5.0%,-1.5%
CC(=O)c1ccc(NC(=O)COc2ccccc2C(=O)Nc2ccc(C)cn2)cc1,-0.6,-2.3%,2.7,?,2.1,16.0%,11.5%
CN(Cc1ccc(F)cc1)C(=O)CN1CCN(S(=O)(=O)c2ccc3c(c2)OCCCO3)CC1,·,·,·,-44.9%[inhibitor],9.8,·,-0.9%
CCN(CC)CCN(Cc1cc2cc3c(cc2[nH]c1=O)OCO3)C(=S)NCCCN(C)C,16.4,3.9%,0.1,2.3%,-16.7,2.6%,4.2%
Cc1c(Cl)c(C(=O)NC2CCCC2)nn1C,1.3,7.8%,-0.2,16.7%,21.5,-28.2%,-0.8%
O=C(CN1CCN(Cc2ccccc2)CC1)Nc1nnc(C(F)(F)F)s1,25.8,8.8%,-1.7,-5.4%,8.9,13.2%,0.4%
Cc1ccc(O)c(N=Nc2ccc(S(=O)(=O)N3CCCC3)cc2)c1,-0.5,12.4%,0.3,26.1%,-7.1,5.0%,-0.6%
Cn1nc(C(=O)OCC(=O)Nc2ccc(S(N)(=O)=O)cc2)c2ccccc2c1=O,11.8,16.9%,3.3,56.7%,3.7,3.3%,-2.1%
COc1cc(/C=N/NC(=O)c2cccs2)ccc1O,-1.3,6.7%,-0.3,-8.3%,-14.1,6.8%,0.2%
Cc1cc(C(=O)N/N=C/c2cc([N+](=O)[O-])ccc2O)c2ccccc2n1,?,-8.3%,15.7,-19.0%,-2.7,-2.0%,0.8%
O=C(N/N=C/c1ccc(Cl)cc1)c1ccc2nc[nH]c2c1,·,·,·,-3.8%,11.5,·,-2.0%
O=C(Oc1ccc(/C=N/NC(=O)c2ccccn2)cc1)c1cccc(F)c1,·,6.6%,·,0.4%,-22.8,·,4.3%
Nn1c(SCC(=O)NCCC2=CCCCC2)nnc1C1CCCCC1,-0.2,-0.3%,3.9,17.5%,10.4,10.9%,-5.4%
CCOc1ccc(-c2noc(-c3ccncc3)n2)cc1OCC,-4.1,-3.1%,1.2,-10.6%,-3.2,16.0%,-12.4%
O=C(Nc1cccc(O)c1)c1ccc2c(c1)C(=O)N(Cc1ccco1)C2=O,-6.2,-9.2%,-1.7,?,7.0,-5.7%,-1.9%
COc1ccc(Sc2ccc(-c3nc4cnccn4c3NC3CCCCC3)cc2OC)cc1,·,-1.3%,·,·,30.9,·,-22.1%
COc1cc(C(c2nnnn2C(C)(C)C)N2CCN(C)CC2)cc(OC)c1OC (configuration not stated),-11.1,6.8%,5.6,19.8%,-2.0,10.3%,-1.3%
CC(=O)Nc1ccc(NC(=O)C(C)OC(=O)c2ccc3c(c2)OCCO3)cc1 (configuration not stated),6.8,0.0%,5.4,-5.8%,-8.9,11.4%,-6.2%
C=CCn1c(O)c(N=NC(=O)CNC(=O)c2cccs2)c2ccccc21,3.2,2.9%,5.4,-59.9%[inhibitor],-16.3,2.9%,0.1%
CC(C)OC(=O)CSc1nnc(-c2ccccn2)n1N,9.0,9.7%,0.0,14.9%[15.4 µM],6.5,-3.7%,3.3%
Cc1sc2nc(SCC(=O)N3CCCCC3)[nH]c(=O)c2c1C,-9.2,8.5%,4.9,9.1%,12.7,-6.7%,1.9%
CCN(c1ccc(OC)cc1)S(=O)(=O)c1csc(C(N)=O)c1,25.6,-1.5%,-0.9,-6.9%,10.2,7.6%,0.7%
C/C=C\C(=O)Nc1cccc(C2=NOC3(C2)C[C@H](C(N)=O)N(C(=O)[C@H]2CCC(=O)N2)C3)c1 (some centres not stated),-25.4,-3.4%,-5.1,-24.3%,14.9,9.2%,0.4%
CC(C)(C)c1ccc(C(=O)Nc2cccc([N+](=O)[O-])c2)cc1,-2.3,-22.2%,1.2,15.6%,-5.8,-0.3%,-2.9%
CCn1c(SCc2ccc(C(=O)O)cc2)nnc1-c1ccc(Cl)cc1,4.0,-21.8%,1.6,-10.2%,·,6.8%,0.0%
O=C(c1nc2ccc(Cl)cn2c1CN1CCCC(CO)C1)N1CCc2ccccc2C1 (configuration not stated),-19.1,-2.4%,1.0,15.2%,3.6,6.6%,-5.8%
C=CCn1c(SCC(N)=O)nc2sc3c(c2c1=O)CCC3,6.4,-3.0%,-0.8,-4.8%[15.4 µM],-1.8,3.3%,-1.9%
CCCN(CCC)S(=O)(=O)c1ccc(C(=O)Nc2cccnc2)cc1,-5.0,2.0%,1.2,-17.4%,19.5,14.5%,-1.4%
COc1cc(C2C(C#N)=C(N)OC3=C2C(=O)CC(C)(C)C3)cc2c1OCO2 (configuration not stated),·,0.2%,·,0.1%[15.4 µM],10.6,·,-0.6%
Cc1cccc(-n2ncc3c(N4CCCC4)ncnc32)c1,2.6,-3.9%,4.5,-3.7%,-2.3,8.3%,-1.0%
CC(C)C(=O)N1CCN(c2ccc(NC(=O)c3cccs3)cc2)CC1,-6.4,?,0.9,10.8%,-14.5,21.0%,2.5%
